PKD1 inh = inhibitors of human PKD1 kinase | Q15139 | PKD1 kinase fluorescence polarization assay | inhibition, %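 (about 10 µM by stock and volumes)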 | actives 0.056% (n = 200,000);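 active means inhibition of 50% or more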;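 further: controls were vehicle for no effect and a reference inhibitor for full effect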
GALR2 ag = activates the human galanin receptor 2; O43603; GALR2-expressing cells, agonist activation read-out; activation, %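 (tested at 5 µM)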; actives 0.48% (n = 140,000);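 active means above mean plus 3 SD of all compounds, about 5% in these data, not always enough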;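 further: 0% = vehicle buffer wells and 100% = reference agonist at full effect; tested in CHO reporter cells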
Target sequence (O43603 whole entry, looked up): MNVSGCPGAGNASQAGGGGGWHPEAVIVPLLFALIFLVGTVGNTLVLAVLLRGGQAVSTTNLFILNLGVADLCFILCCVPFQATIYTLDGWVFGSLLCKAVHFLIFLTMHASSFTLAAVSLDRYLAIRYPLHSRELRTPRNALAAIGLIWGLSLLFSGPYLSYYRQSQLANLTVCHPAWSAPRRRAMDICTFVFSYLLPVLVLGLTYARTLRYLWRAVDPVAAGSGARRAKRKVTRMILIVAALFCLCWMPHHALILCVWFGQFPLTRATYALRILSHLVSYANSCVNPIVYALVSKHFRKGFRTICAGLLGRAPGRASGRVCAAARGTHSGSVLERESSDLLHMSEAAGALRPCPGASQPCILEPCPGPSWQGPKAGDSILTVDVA
RGS16-Gao HTS = RGS16-Galphao interaction regulator (human); bead-based flow cytometry RGS16-Galphao binding, fluorescence; actives lie on both sides; binding response (% of control), % at 10 µM; AID 1441; actives 0.38% (n = 220,000);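 active means below 25% or above 175%, edge rows of some plates excepted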;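 further: Galphao activated by GDP with aluminum fluoride before binding; 100% = wells without compound and 0% = beads without RGS; some results beyond the cut were filed as inactive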
Target sequence (O15492 whole entry, looked up): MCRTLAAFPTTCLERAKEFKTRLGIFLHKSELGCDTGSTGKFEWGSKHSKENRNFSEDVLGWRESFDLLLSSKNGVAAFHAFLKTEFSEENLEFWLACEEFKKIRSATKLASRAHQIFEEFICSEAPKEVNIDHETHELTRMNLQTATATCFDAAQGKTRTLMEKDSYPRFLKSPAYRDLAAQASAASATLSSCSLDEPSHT
Target sequence (P09471 whole entry, looked up): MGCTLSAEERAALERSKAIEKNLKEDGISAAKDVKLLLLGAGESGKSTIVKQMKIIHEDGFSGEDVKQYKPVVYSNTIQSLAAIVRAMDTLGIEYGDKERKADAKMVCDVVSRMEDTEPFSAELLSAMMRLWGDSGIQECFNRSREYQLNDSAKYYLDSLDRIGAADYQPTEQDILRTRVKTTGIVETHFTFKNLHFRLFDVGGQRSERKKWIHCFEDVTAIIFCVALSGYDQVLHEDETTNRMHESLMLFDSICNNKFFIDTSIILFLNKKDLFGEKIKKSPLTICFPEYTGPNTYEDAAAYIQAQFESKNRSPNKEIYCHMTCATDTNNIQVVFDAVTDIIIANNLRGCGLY
HSV replic up = HSV replication enhancement. AID 1956. actives 0.005% (n = 220,000). HSV replication augmentation in cells, fold increase. maximum fold increase;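 active means peak rise of 1.5-fold or more in the series; tested in PC3 cells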;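 further: first round at 10 µM; read as green reporter fluorescence; hits show the peak of a series up to 25 µM; 1 = signal of infected wells without compound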
INS promoter inh = TRM-6 insulin promoter activity inhibition. TRM-6 cells (human fetal islet line), insulin promoter-eGFP reporter, imaging; reporter expression induced with tamoxifen. inhibition, % at 2 µM. actives 0.9% (n = 130,000). AID 1273;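 active means inhibition above the mean plus 3 SD, with well images judged a real hit on visual review, cut at about 60% in these data, passing the limit was not always enough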
INS promoter inh cell count = also measured in INS promoter inh; calls as there; normalized cell count, %; measured here: cell count, toxicity; reference of the scale not given here;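 cells exposed to compound for 48 h; stained nuclei by imaging scaled within each plate; lower means fewer cells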
HSV replic up primary fold = further read-out of HSV replic up, marked with its call; fold increase; compound at 10 µM; measured here: primary screen fold increase 10 uM; tested in PC3 cells;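 GFP signal in the first replicate; 1 = infected wells without compound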
* marks the source's active call; other numbers are inactive results; i = inactive; · = no result given.

SMILES | PKD1 inh | GALR2 ag | RGS16-Gao HTS | HSV replic up | HSV replic up primary fold | INS promoter inh | INS promoter inh cell count
Cn1c(C(=O)O)c(CC(=O)Nc2ccccc2F)c2ccccc21 | -2.1 | -1.9 | 102.4 | i | 1.02 | 30.0 | 83.0
CCOC(=O)/C=C(/C)N1N=C(c2ccc(OC)cc2)CC1c1cccc([N+](=O)[O-])c1 (centres undefined) | -1.2 | 0.9 | 107.0 | i | 1.04 | -17.2 | 108.4
CCc1nccn1S(=O)(=O)c1ccc(C)c(C)c1 | -2.0 | -3.1 | 100.5 | i | 0.89 | 34.3 | 69.6
Cc1cccc(C)c1NC(=O)CN(C)C(=O)C(c1ccccc1)c1ccccc1 | -7.1 | -1.7 | 99.9 | i | 1.07 | -7.4 | 47.5
Brc1ccc(CNc2cc3c(cc2Br)OCCO3)cc1 | 3.6 | · | 99.8 | i | 0.96 | · | ·
CSc1cc(/C=N/O)c(SC)s1 | -19.0 | -1.4 | 97.7 | i | 0.87 | · | ·
COc1ccc(CN(C)CC(=O)NC(C)c2ccccc2)cc1OC (centres undefined) | -2.2 | · | 101.7 | i | 0.99 | 25.0 | 132.0
COc1ccc(CCNCCC(=O)Nc2c(C)cc(C)cc2C)cc1OC | 1.6 | -0.1 | 123.0 | i | 1.1 | -75.9 | 98.3
CS(=O)(=O)N(CCc1ccccc1)CC(=O)NCc1cccnc1 | -13.5 | -2.8 | 104.3 | i | 1.04 | -140.0 | 88.7
CCOC(=O)c1cc(OC(=O)c2cccs2)n(-c2ccccc2)n1 | -5.6 | -4.4 | 105.9 | i | 1.02 | 70.4 | 135.1
COC(=O)c1ccccc1NC(=O)C(=O)NCc1ccncc1 | -2.0 | · | 101.3 | i | 0.94 | · | ·
O=C(NC1CCCC1)C(c1ccc(F)cc1)N(Cc1ccc(F)cc1)C(=O)CCl (centres undefined) | -6.5 | -0.3 | 111.8 | i | 0.94 | 10.8 | 129.8
CC(=O)N(Cc1ccc(Br)cc1)c1ccccc1C(=O)O | · | · | 102.7 | i | 1.15 | · | ·
CC1(C)S/C(=N/N=C/c2ccco2)NC1=O | 6.8 | -0.5 | 101.4 | i | 0.96 | · | ·
O=C1NC(c2cccs2)C(C(=O)c2ccccc2)C(O)(C(F)(F)F)N1 (centres undefined) | -1.0 | -1.5 | 106.5 | i | 0.83 | -43.8 | 118.4
COCCNC(=O)c1c[nH]c2cc(OC)c(OC)cc2c1=O | -8.6 | -1.0 | 102.5 | i | 1.02 | · | ·
COC(=O)C1=NN(c2ccc(Cl)cc2)C2C(=O)N(c3ccccc3OC)C(=O)C12 (centres undefined) | -5.9 | -0.9 | 132.8 | i | 1.09 | 3.3 | 123.5
CC(C)(C)c1ccc(S(=O)(=O)NNC(=O)C2CCN(Cc3cccc(F)c3)CC2)cc1 | -1.6 | · | 101.3 | i | 0.87 | · | ·
CCOC(=O)CCCCNC(=O)Nc1ccccc1 | -4.3 | · | 100.4 | i | 0.98 | · | ·
COC(=O)CN1C(=S)N(c2ccc(OC)cc2)C(=O)/C1=C/c1cccs1 | -0.7 | 0.2 | 107.7 | i | 0.93 | -37.8 | 96.5
CCOc1ccc(NS(=O)(=O)c2ccc(NC(=S)NC(=O)C(C)C)cc2)cc1 | 1.8 | -0.7 | 98.5 | i | 1.04 | -20.0 | 86.0
O=C(CCC(=O)N(CC(=O)NC1CCCCC1)Cc1ccccc1)Nc1ccccn1 | -7.2 | · | 104.9 | i | 0.89 | · | ·
COC(=O)c1cc(-c2ccc(Cl)cc2)n(-c2ccc(S(N)(=O)=O)cc2)n1 | 0.9 | · | 98.8 | i | 1.07 | · | ·
Cc1ccc(/C=C2/SC(=O)N(CC(=O)N3CCOCC3)C2=O)s1 | -8.2 | -0.8 | 93.8 | i | 1 | 44.4 | 127.4
COc1ccc(-n2nc(C(=O)NCC(=O)NCc3ccc(F)cc3)c3ccccc3c2=O)c(OC)c1 | -11.1 | -0.1 | 100.0 | i | 0.77 | 40.9 | 90.5

Later entries.
SMILES | PKD1 inh | GALR2 ag | RGS16-Gao HTS | HSV replic up | HSV replic up primary fold | INS promoter inh | INS promoter inh cell count
O=C(Nc1ccc2c(c1)OCO2)c1cncc(Br)c1 | -7.6 | -0.2 | 103.0 | i | 0.92 | · | ·
CCOC(=O)C(C)c1n[nH]c(=O)c2ccccc12 (centres undefined) | -7.1 | -0.8 | 97.7 | i | 0.79 | 0.0 | 112.0
CC1CC1C(=O)OCC(=O)NCc1ccc(Cl)cc1 (centres undefined) | -6.8 | -3.0 | 95.4 | i | 0.91 | -1.4 | 52.6
COc1ccc(C(=O)NCC(=O)OCC(=O)Nc2cc(OC)ccc2OC)cc1 | -1.2 | -0.1 | 97.3 | i | 0.85 | 22.0 | 142.0
COc1ccc(NC(=O)NCc2ccco2)cc1OC | -0.5 | · | 102.3 | i | 0.98 | 5.3 | 77.4
COc1ncnc2c1NC1=C(S2)C(=NCCC(=O)O)CC(C)(C)C1 | -12.7 | -0.8 | 109.0 | i | 1.2 | 2.4 | 148.4
N#CC1=C(N)N=C(SCc2ccccc2)C(C(N)=O)C12CCCCC2 (centres undefined) | -3.0 | -0.5 | 268.3 | i | 1 | 18.9 | 96.0
COc1ccc(NS(=O)(=O)c2cc(NC(=O)c3nc4nc(C)cc(C)n4n3)ccc2C)cc1 | -1.9 | · | 99.0 | i | 0.85 | · | ·
Cc1ccccc1CN1N=C(/C=C/c2ccccc2)CCC1=O | -6.9 | · | 99.3 | i | 1.05 | 6.7 | 138.6
COC(=O)CSc1nc2ccc(NC(=O)c3ccccc3C(=O)N3CCOCC3)cc2s1 | -2.6 | 1.1 | 106.6 | i | 0.98 | · | ·
CCC(=O)NC(=S)Nc1ccccc1F | -9.7 | 0.5 | 93.0 | i | 1.07 | 27.9 | 148.6
C=CCSc1nc(-c2ccc(OC)cc2)c(C#N)c(=O)n1CC=C | -5.0 | · | 104.2 | i | 0.89 | · | ·
Cc1ccc(C)c(N2CCN(C(=O)C3CCCN(S(=O)(=O)c4c(C)[nH]c(=O)[nH]c4=O)C3)CC2)c1 (centres undefined) | -0.1 | -1.7 | 105.8 | i | 1.02 | 18.6 | 140.6
CCCCOc1ccc(C(=O)NCc2ccco2)cc1 | -0.3 | -1.4 | 98.5 | i | 0.92 | -30.3 | 85.5
COc1ccc(OC)c(C2C(C(=O)c3sc(C)nc3C)=C(O)C(=O)N2CCN2CCOCC2)c1 (centres undefined) | -7.4 | -0.3 | 98.7 | i | 1 | -14.3 | 128.2
O=C(Cc1cccc2ccccc12)N/N=C1\CCCc2ccccc21 | -12.3 | -0.8 | 100.3 | i | 0.87 | -14.3 | 98.5
COc1ccc(C2/C=C\CN(S(=O)(=O)c3ccc(C)cc3)CC(=O)N2Cc2ccc(F)cc2)cc1 (centres undefined) | · | · | 97.4 | i | 0.85 | · | ·
c1ccc(CNc2ccc3c(c2)ncn3C2CCCCC2)nc1 | -2.4 | -2.5 | 98.1 | i | 0.82 | 2.9 | 110.7
CCCn1c(SCC(=O)Nc2nonc2C)nnc1-c1ccoc1C | -1.2 | -1.8 | 92.3 | i | 1.04 | -16.7 | 94.7
CSc1nc2ccc(NC(=O)C3=NNC(=O)CC3)cc2s1 | -0.8 | · | 99.0 | i | 0.82 | · | ·
Cc1cc(Br)cc2c1NC(=O)C2(c1c(C)n(C)n(-c2ccccc2)c1=O)c1c(C)n(C)n(-c2ccccc2)c1=O | -5.9 | -4.1 | 106.8 | i | 0.86 | -71.4 | 105.9
CCC(C)c1ccc(NC(=O)COc2c(F)c(F)c(C(F)(F)F)c(F)c2F)cc1 (centres undefined) | 2.3 | -0.2 | 97.0 | i | 0.94 | · | ·
NC(=S)Nc1ccc2cc[nH]c2c1 | 2.4 | · | 96.4 | i | 0.92 | -21.4 | 99.8
CCN(CC)CCOC(=O)/C=C/c1ccccc1OC | -2.1 | -0.7 | 101.1 | · | · | -69.2 | 169.6
CCCc1cc(C(=O)NNC(=S)NCC)c2ccccc2n1 | 1.9 | -1.4 | 100.8 | i | 1.03 | 50.0 | 105.4

Arranged by molar mass (lowest first): three of the compounds above
SMILES | PKD1 inh | GALR2 ag | RGS16-Gao HTS | HSV replic up | HSV replic up primary fold | INS promoter inh | INS promoter inh cell count
NC(=S)Nc1ccc2cc[nH]c2c1 | 2.4 | · | 96.4 | i | 0.92 | -21.4 | 99.8
CCCc1cc(C(=O)NNC(=S)NCC)c2ccccc2n1 | 1.9 | -1.4 | 100.8 | i | 1.03 | 50.0 | 105.4
N#CC1=C(N)N=C(SCc2ccccc2)C(C(N)=O)C12CCCCC2 (centres undefined) | -3.0 | -0.5 | 268.3 | i | 1 | 18.9 | 96.0

The listing continues.
SMILES | PKD1 inh | GALR2 ag | RGS16-Gao HTS | HSV replic up | HSV replic up primary fold | INS promoter inh | INS promoter inh cell count
c1ccc(CSc2nnc(-c3cccs3)n2Cc2ccco2)cc1 | -10.1 | -0.2 | 110.8 | i | 0.82 | -22.7 | 175.0
CC(C)(C)NC(=O)NC(=O)COC(=O)Cn1c(C(F)(F)F)nc2ccccc21 | -2.0 | -0.4 | 101.0 | i | 0.86 | 18.2 | 119.5
O=C(NNC(=O)c1cc(OCC(F)(F)F)ccc1OCC(F)(F)F)c1cccc(C(F)(F)F)c1 | -1.2 | -2.2 | 104.7 | i | 0.9 | · | ·
O=C(CC1NCCN(Cc2ccccc2)C1=O)Nc1ccccc1 (centres undefined) | · | · | 105.4 | i | 0.93 | · | ·
CC(=O)OCCOc1nc(NC(C)C)nc(NC(C)C)n1 | -8.3 | -1.9 | 110.2 | i | 1.12 | 14.3 | 120.1
OCCOCCOc1ccccc1OCCOCCO | 5.7 | · | 102.1 | i | 0.9 | -88.2 | 78.3
O=C(O)c1ccc2c(c1)C(=O)N(Cc1ccc3c(c1)OCO3)C2=O | -2.4 | -2.3 | 113.6 | i | 1.05 | 50.0 | 108.2
COc1ccc(N2CCN(C(=O)CSc3ccc(C)cc3)CC2)cc1 | -4.3 | · | 98.2 | i | 0.95 | 44.4 | 127.5
C/C(CC1(O)C(=O)N(C)c2ccccc21)=N\O (centres undefined) | 8.9 | -0.2 | 108.8 | i | 0.8 | · | ·
CCOc1ccc(-c2csc(NC(=O)CSC3=NC(=O)CN3C(C)=O)n2)c2ccccc12 | 10.5 | 2.4 | 96.8 | i | 1.09 | · | ·
CCOc1cc(/C=N/NC(=O)CSc2nncn2C)ccc1OCc1cccc(C)c1 | 12.2 | -0.3 | 105.1 | i | 1.21 | 14.3 | 74.4
COc1cc(/C=C2\SC(=O)N(CC(=O)Nc3cccc(C)c3)C2=O)cc([N+](=O)[O-])c1O | -10.6 | · | 103.3 | i | 0.97 | 41.7 | 120.2
COC(=O)C/C=C/[C@@H](C)[C@@H](/C=N/OC[C@@H](C)[C@H](OCc1ccccc1)C(C)C)NS(=O)(=O)c1ccc(C)cc1 | 4.5 | -0.1 | 99.2 | · | · | -50.0 | 74.7
CCCc1sc(N)nc1-c1ccc(C)cc1 | -2.5 | -1.4 | 81.0 | i | 0.797 | -18.8 | 66.8
O=C(Nc1ccc(Br)cc1F)C1CCN(c2nnc(-n3cccc3)s2)CC1 | -8.5 | -2.5 | 98.1 | i | 0.74 | · | ·
N#CC1=C(SCC(=O)NC2CC2)NC(=O)C(C#N)C12CCCCC2 (centres undefined) | 0.8 | -0.1 | 81.7 | i | 0.97 | 27.3 | 100.6
O=C(Nc1ccc(OC(F)(F)F)cc1)N1CCN(c2ccnc3cc(Cl)ccc23)CC1 | · | · | 98.2 | i | 0.9 | · | ·
Nc1ccc(C(=O)N/N=C/c2sc(N3CCOCC3)nc2-c2ccccc2)cc1 | -8.5 | -0.3 | 103.4 | i | 0.92 | -25.0 | 93.4
COc1ccc(OC)c(N/C=C/C(=C(C#N)C#N)N(C)C)c1 | -2.7 | · | 100.2 | i | 0.94 | · | ·
O=C(NNC(=O)c1ccccc1-n1cccc1)c1ccc(Cl)cc1 | -6.7 | -1.1 | 97.9 | i | 0.88 | -2.4 | 91.4
CCOC(=O)c1ccc(-c2ccc(C3Nc4ccccc4C(=O)N3O)o2)cc1 (centres undefined) | -17.4 | -1.7 | 94.2 | i | 1.11 | · | ·
N#Cc1ccccc1Cn1cc(/C=N/Nc2ccc([N+](=O)[O-])cn2)c2ccccc21 | 3.8 | · | 110.0 | i | 1.28 | -400.0 | 117.5
COC(=O)c1ccccc1NC(=O)CN(C)Cc1ccccc1 | -6.7 | · | 91.9 | i | 0.92 | · | ·
CCCCNC(=O)OCCNC(=O)NC | -4.0 | -1.4 | 116.1 | i | 0.87 | -21.1 | 141.7
COc1ccc(S(=O)(=O)N(CC(=O)NC2CC2)c2ccc(C)cc2)cc1 | 5.1 | · | 101.7 | i | 1.12 | · | ·
CCOC(=O)c1c(C)[nH]c(C)c1C(=O)COC(=O)c1ccccc1O | -2.9 | 0.7 | 87.3 | i | 1.1 | · | ·
Nc1c2c(nc3ccn(Cc4ccccc4)c(=O)c13)CCC2 | -6.6 | 0.5 | 101.0 | i | 0.92 | · | ·
